Bioassay records (PubChem BioAssay)
AF4-AF9 inh – blocks AF4 peptide binding to human AF9 | AlphaScreen, biotin-AF4 peptide binding to FLAG-AF9 | P42568 | inhibition, % at 10 µM | 0.47% of 350,000 active | AID 651704;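 active = every replicate reaching a set inhibition limit, whatever the replicate mean, cut at about 25% in these data; inconclusive = mean inhibition reaches that limit but some replicates miss it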;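 note: 0% = plate neutral control median and 100% = total signal loss; the record names both 10 and 1 µM as test concentration; the first replicate is given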
Target sequence (P42568 whole entry, looked up): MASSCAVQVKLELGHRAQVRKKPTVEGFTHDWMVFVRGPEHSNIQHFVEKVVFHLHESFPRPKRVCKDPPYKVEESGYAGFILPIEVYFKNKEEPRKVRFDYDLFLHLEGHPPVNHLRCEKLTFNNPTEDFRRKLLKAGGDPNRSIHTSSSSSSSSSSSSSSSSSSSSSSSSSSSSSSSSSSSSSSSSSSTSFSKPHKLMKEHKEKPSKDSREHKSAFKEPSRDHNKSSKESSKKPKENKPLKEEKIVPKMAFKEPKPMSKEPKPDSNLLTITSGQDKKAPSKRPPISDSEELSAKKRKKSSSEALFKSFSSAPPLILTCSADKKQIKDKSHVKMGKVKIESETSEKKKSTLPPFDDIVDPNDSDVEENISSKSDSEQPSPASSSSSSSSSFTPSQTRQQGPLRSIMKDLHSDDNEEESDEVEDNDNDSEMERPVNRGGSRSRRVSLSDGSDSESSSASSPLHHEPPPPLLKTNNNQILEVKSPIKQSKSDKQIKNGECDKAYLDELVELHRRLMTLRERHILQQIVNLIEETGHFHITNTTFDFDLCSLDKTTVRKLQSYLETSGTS
Calb FLC – C. albicans growth modulation with fluconazole. 0.57% of 300,000 active. growth inhibition, % (test concentration not listed). C. albicans CaCi-2 (fluconazole-resistant clinical isolate) + fluconazole, Alamar Blue growth, 48 h;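 active = most replicates above 75%; inconclusive = exactly half above 75%; inactive = most below 75%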;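 note: all wells also contain fluconazole at 8 µg/ml as a sub-toxic cotreatment; 0% = median of DMSO wells and 100% = median of geldanamycin control wells; wells of about 8 µL received 7.5 nL stock; the first replicate is given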
T cruzi repl – T. cruzi replication inhibition. T. cruzi beta-gal in NIH3T3, luminescence, 90 h. inhibition, % (test concentration not listed). 1.4% of 300,000 active. AID 1885;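 active = mean inhibition across valid replicates above about 55%, limit read from the data; inconclusive = mean below that limit but half or more replicates reach it; inactive = mean below it, under half of replicates reach it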;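 note: signal also drops with host cell toxicity which is not excluded here; 0% = plate median of DMSO wells and 100% = zero luminescence signal; higher percent means less beta-gal luminescence so fewer parasites; stock transfer was 50 nL into about 50 µL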
Vif TR-FRET – inhibitors of Vif binding to APOBEC3G peptide, primary screen, biochemical, TR-FRET, GST-Vif 1-94, biotin-A3G peptide, dose response retest (AID 1117319); TR-FRET GST-Vif / biotin-A3G peptide binding; higher % means a stronger effect; test concentration not given here; strong numbers were not always called active; inhibition, %, or IC50 in µM where a hit was titrated; 0.57% of 260,000 active;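 active = above the screen mean plus three standard deviations and confirmed in dose response; inconclusive = results disagree or hit not tested in dose response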;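 note: Vif residues 1-94 fused to GST binding biotinylated APOBEC3G peptide 110-148; 0% = full assay without inhibitor and 100% = GST in place of GST-Vif; retest series ran down from 100 µM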
LANA-H2A inh – blocks KSHV LANA binding to histone H2A/H2B; Q9QR71; cell-free LANA-H2A/H2B peptide, fluorescence polarization; inhibition, % (no concentration beside the values); 0.6% of 320,000 active; AID 2629; in the data active = inhibition mostly above about 10%, no sharp cut-off; inactive = mostly below about 6.7%;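 note: stock transfer was 7.5 nL into about 10 µL; 0% = median of vehicle wells and 100% = median of positive control wells; one replicate is shown; the record names a cut of 25% in any replicate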
A1 inh – inhibitors of the anti-apoptotic protein A1, read as caspase activation; MEF A1-2A-BIM cells, Caspase-Glo 3/7 luminescence, 3 h; percent of clofoctol response, vehicle zero; 0.066% of 330,000 active; caspase activation, % (no concentration beside the values); AID 2462;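 active = over half of replicate activation scores above 10%, or exactly half above 10 with the replicate mean above 10; inconclusive = replicate mean below 10 yet half the replicates above 10; inactive = over half of replicates below 10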;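 note: wells of about 30 µL received 50 nL stock; many hits fall short of the cut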
RanGTP-Imp inh – disruptors of Ran-importin-beta complex formation – biochemical, FRET, CFP-Ran, YFP-importin-beta, homogeneous, primary screen. cell-free CFP-Ran/YFP-importin-beta FRET ratio. inhibition, % (no concentration beside the values). 1.1% of 300,000 active;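 active = most replicates above 15%; inconclusive = exactly half above 15%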;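 note: 0% = DMSO wells and 100% = Ran loaded with GDP instead of GTP; wells of about 40 µL received 100 nL stock; the first replicate is given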
Beta apoptosis – blocks beta cell apoptosis. INS-1E cytokine-induced death, ATP luminescence, 48 h; percent of positive-control rescue, neutral wells zero. protection from apoptosis, % (test concentration not listed). 0.8% of 300,000 active;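 active = all replicates at 75% or more, or half of them and the mean; inconclusive = half reach 75% but not the mean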;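 note: 0% = cytokine-treated negative control wells and 100% = positive control rescue; higher means more ATP so stronger rescue from cytokine killing; wells of about 40 µL received 100 nL stock; the first replicate is given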
Starred values were filed as active, the others as inactive; ? = inconclusive; · = not tested or not shown; & = joins results of further samples.

SMILES	AF4-AF9 inh	Calb FLC	T cruzi repl	Vif TR-FRET	LANA-H2A inh	A1 inh	RanGTP-Imp inh	Beta apoptosis
COc1cc(OC)cc(-c2c(-c3ccsc3)c3cc(Br)ccc3n2C)c1	1.5	·	·	·	-1.9	-0.1	·	-2
COc1ccc(NC(=O)N2CCCC2C(=O)NCCc2ccccc2)cc1 (stereo not drawn)	-6.5	2	-6	·	-8.7	1.7	0.5	-8
O=C(NCC(=O)N1CCN(c2ccccc2O)CC1)c1ccc(Br)o1	-8.2	·	23	9%	1.2	0.0	-4.1	3
Cc1sc2nc(CSCC(=O)N(C)c3ccccc3)[nH]c(=O)c2c1C	4.7	-34	16	-10%	8.3	0.2	-0.9	-6
CC(=O)OCCN(CCCn1c(-c2ccncc2)nc2ccccc21)c1nc(-c2ccc(C)cc2)cs1	-1.8	11	-2	·	3.3	1.5	-2.0	-5
CN(CC(=O)Nc1ccccc1C(F)(F)F)C(=O)c1cc(Cl)nc2ccccc12	1.6	-15	-2	-3%	2.8	0.2	-2.9	1
O=C1NC(Cc2ccccc2)c2nc3cc(F)ccc3c(=O)n2-c2ccccc21 (stereo not drawn)	-5.3	·	·	·	4.4	1.5	·	-3
CCOc1cc2[nH]c(=S)n(CCC(=O)NCc3ccc(OC)cc3)c(=O)c2cc1OCC	·	-2	-8	-5%	2.7	-0.5	2.8	0
O=C(/C=C/c1ccc(OC(F)F)cc1)OCC(=O)N1CCN(C(=O)c2ccco2)CC1	·	3	-23	13%	0.8	-0.4	2.7	-7
CC(C)(C)C(=O)N1CCC(O)(CS(=O)(=O)c2ccc(Cl)c(Cl)c2)CC1	-3.1	12	-13	4%	·	2.0	2.4	1
CCc1ccc(CN(C)Cc2nc(Cc3cccc(C(F)(F)F)c3)no2)nc1	-0.4	-6	13	2%	1.4	-1.4	-0.1	1
NC(=O)Cc1nc2scc(-c3ccc(Cl)cc3)c2c(=O)[nH]1	-0.3	-10	-10	·	2.4	-0.3	-0.4	2
O=C(O)c1ccc(NCc2cccnc2)cc1	·	3	-5	?	4.7	0.8	8.1	0
O=C(O)CCCN1C(=O)NC2NC(=O)NC21 (stereo not drawn)	3.0	-2	5	10%	-17	1.9	-0.7	0
Cc1oc2c(c(C)cc3oc(=O)c(CC(=O)N[C@H](C(=O)O)C(C)C)c(C)c32)c1C	-2.7	0	-13	-10%	-1.3	-1.5	-0.2	-4
Cc1c(C(=O)Nc2cccc(Cl)c2)oc2ccc(S(=O)(=O)N3CCC4(CC3)OCCO4)cc12	5.9	-10	-4	-1%	-7.0	1.0	1.1	35
O=C(Nc1nc(-c2ccc3c(c2)OCO3)cs1)C1CC1	-5.1	-14	-7	-1%	-2.5	-0.1	3.6	2
COc1ccccc1-n1c(C)nnc1SCC(=O)NCc1ccccc1	·	-7	-5	3%	2.9	0.5	-1.0	-19
COC(=O)c1ccc(C(=O)N=c2sccn2C)cc1	-0.7	-4	-9	·	2.4	-9.0	-0.6	2
CCCc1nc2nc(C)c(NS(=O)(=O)c3ccc4c(c3)CCCC4)c(=O)n2[nH]1	0.7	-2	-14	·	1.4	-0.3	-2.6	-5
O=C(NC(=S)Nc1ccccc1N1CCOCC1)c1ccc(-c2cccc(Cl)c2)o1	·	-21	9	19%	3.8	0.1	-3.7	4
COc1ccc(N2C(=O)[C@@H]3[C@H](C2=O)[C@H]2c4ccccc4C=CN2[C@@H]3C(C)=O)cc1	-0.9	·	·	-5%	1.0	-0.1	·	-8
Cc1cc(N2C(=O)C(O)=C(C(=O)c3ccc(C)o3)C2c2ccc(OCc3ccccc3)cc2)no1 (stereo not drawn)	1.4	27	-17	·	4.6	-0.2	5.6	-13
O=C(CCS(=O)(=O)c1ccccc1)N1CCN(c2ccccc2)CC1	1.0	-5	-14	·	3.1	1.7	-2.1	-3
CCOc1ccc(NS(=O)(=O)c2ccc(C(=O)N3CCCCCC3)cc2)cc1	2.0	-2	11	0%	·	0.0	-2.6	16

The list continues.
SMILES	AF4-AF9 inh	Calb FLC	T cruzi repl	Vif TR-FRET	LANA-H2A inh	A1 inh	RanGTP-Imp inh	Beta apoptosis
O=C(CSc1nc2cc(Cl)ccc2c(=O)n1Cc1ccco1)Nc1ccc(S(=O)(=O)N2CCOCC2)cc1	-0.9	-6	5	8%	4.2	-0.1	-2.3	-6
C/C(N)=C(/C#N)C(=O)COc1ncnc2ccccc12	·	13	4	4%	-2.3	1.4	22*	1
CCCCS(=O)CC(O)COc1ccc(C(C)(C)C)cc1 (stereo not drawn)	·	5	11	2%	-2.8	1.5	6.8	-1
CCN(CC)c1ccc(/C=N/N2CCN(Cc3ccccc3Cl)CC2)cc1	26*	-12	6	1%	5.3	-0.6	2.4	-1
Cn1nc(NC(=O)CC23CC4CC(CC(C4)C2)C3)c2c(F)cccc21	0.2	2	17	·	-1.4	-0.1	-1.6	-5
CC(=O)c1ccc(NC(=O)c2ccc(S(=O)(=O)c3ccccc3)cc2)cc1	·	-1	20	7%	4.6	0.2	?	6
Cc1cccc(C)c1NC(=O)CN(C)C(=O)c1ccc(COc2ccccc2)cc1	1.7	-7	-8	21%	-3.5	0.0	3.6	·
CCC(C)(C)n1nnnc1C(c1ccc(Cl)cc1)N1CCN(C)CC1 (stereo not drawn)	·	-22	20	9%	-1.9	0.8	-1.7	-1
O=C(Cc1ccc(-c2ccccc2)cc1)NCCN1CCOCC1	·	-2	-22	-3%	-5.0	-0.9	-1.9	-8
Cc1ccc(CCNC(=O)c2cc(S(=O)(=O)N3CCOCC3)cn2C)cc1	4.5	5	-1	·	-2.6	-0.6	-1.2	1
C=CCn1c(CSCc2ccccc2)nnc1SCC(=O)N1CCN(c2ccccc2)CC1	5.2	-13	10	8%	-2.0	0.5	1.3	-2
O=c1[nH]c2cnccc2n1-c1ccccc1	·	6	-1	3%	-1.2	-0.8	2.5	-4
Cc1ccc(C(=O)OCC(=O)N(C)c2ccccc2)cc1C	-5.3	-8	-8	·	-0.8	1.4	-2.0	·
CCOC(=O)c1cnc2c(Cl)cccc2c1NCCN(C)C	·	-6	37	5%	0.3	1.1	6.1	6
CCCC(=O)NCCc1cc2ccc(C)c(C)c2[nH]c1=O	-0.5	0	-15	0%	3.6	0.6	-4.5	-2
CCC[C@@H]1C[C@@]1(CCC)[C@@H](NC(=O)c1ccccc1)c1ccc(C(=O)OC)cc1	-0.9	-2	32	4%	-1.3	0.8	0.7	9
COc1ccc(Br)c(-c2nnc(CS(=O)(=O)c3ccccc3)o2)c1	-0.5	?	4	·	-7.1	-0.8	1.9	1
CCOC(=O)c1ccc(NC(=O)CSc2nnc(C3CCCCC3)n2C)cc1	·	22	29	·	7.3	0.6	16*	2
COc1ccc(CC(=O)Nc2ccc(C)c(S(=O)(=O)N3CCCCCC3)c2)cc1	-2.7	·	·	·	-2.9	0.2	·	-1
COc1cccc(/C=N/NC(=O)CC(=O)NCCc2ccccc2)c1OC	·	-8	-6	-13%	1.2	-0.1	-0.5	1
CCCOCCOC(=O)C1=C(C)NC(=O)NC1c1cc(Cl)c(O)c(OC)c1 (stereo not drawn)	-13	5	-4	1%	-0.8	-0.4	-0.8	-3
CNC[C@H]1Oc2c(NC(=O)c3ccc(-c4nccs4)cc3)cccc2C(=O)N([C@@H](C)CO)C[C@@H]1C	-0.7&0.4	·	·	·	-1.6	0.0	·	-9
COc1ccc(CC(=O)N2N=C(C)CC2(O)c2cccnc2)cc1 (stereo not drawn)	·	17	-10	-4%	3.2	-0.1	?	1
C=CCn1c(SCC(=O)NCC2CCCO2)nc2c([nH]c3ccccc32)c1=O (stereo not drawn)	-2.3	25	-7	·	-2.6	-0.9	3.3	1
CC(Oc1cc2oc(=O)c3c(c2cc1Cl)CCCC3)C(=O)NCC1CCC(C(=O)O)CC1 (stereo not drawn)	-2.8	·	-3	·	-1.9	0.3	0.1	-6

(listing goes on)
SMILES	AF4-AF9 inh	Calb FLC	T cruzi repl	Vif TR-FRET	LANA-H2A inh	A1 inh	RanGTP-Imp inh	Beta apoptosis
O=C(/C=C/c1cccc(Br)c1)NCC1CCCCC1	·	7	12	12%	-6.4	-0.2	4.6	-2
CC(=O)[C@@H]1[C@@H]2C(=O)N(c3ccccc3F)C(=O)[C@@H]2[C@H]2c3ccccc3C=NN12	-0.3	1	3	·	-6.3	0.7	2.8	-4
C=CCN(c1cccc(C(F)(F)F)c1)S(=O)(=O)c1cccc(C(=O)OCC(=O)NC)c1	0.8	-12	-8	-2%	-0.7	-0.7	1.0	-3
COCCN(C(=O)CNC(=O)c1ccco1)C(C(=O)NC1CCCC1)c1cccc(OC)c1 (stereo not drawn)	-14	-3	-6	·	-7.2	-0.5	?	-3
Cc1ccc(CN(C)C(=O)COC(=O)CSc2ccc([N+](=O)[O-])cc2)cc1	1.2	2	-12	2%	3.1	0.0	-0.6	-6
OC1CCN(c2c3c(nc4cc(-c5ccc(Cl)cc5)nn24)CCC3)CC1	·	9	30	·	3.8	0.3	-0.7	5
COc1cc(N(C(=O)Cc2cccs2)C(C(=O)NC2CCCCC2)c2ccc(C)cc2)ccc1-n1cnnn1 (stereo not drawn)	·	9	10	·	-1.4	0.4	1.1	16
CCCCC[C@H]1CN(Cc2ccc(OC)cc2)C(=O)[C@@H]1CC(=O)NCc1ccccc1	·	3	33	·	-10	0.2	-0.6	0
COc1cccc(NC(=O)CN(C)CC(=O)Nc2ccc(C)c([N+](=O)[O-])c2)c1	-19	-3	1	·	1.9	-1.1	3.9	-12
COc1ccc(C(=O)NCC2CCCN2S(=O)(=O)c2cccs2)cc1 (stereo not drawn)	-0.5	17	-1	-4%	2.4	0.9	0.9	-5
CN(C)C(CNC(=O)CSc1nc2ccccc2c(=O)n1Cc1ccco1)c1ccccc1 (stereo not drawn)	3.4	3	-2	3%	6.5	2.3	0.1	2
CC(C)[C@@H](N)C(=O)N/N=C/c1ccc2ncccc2c1	·	4	-14	17%	1.7	-0.1	-4.4	-2
CCOC(=O)c1c(C)[nH]c(C(=O)OCC(=O)NCc2ccc(OC)c(OC)c2)c1C	2.4	·	·	-1%	-1.2	-0.5	·	3
COc1ccccc1NS(=O)(=O)c1cccc(C(=O)N/N=C2\CC(=O)CC(C)(C)C2)c1	0.7	5	-4	·	-1.6	-0.1	-7.2	-2
O=C(Cc1c(F)cccc1Cl)Nc1ccccc1N1CCCCC1	-1.2	-4	17	3%	2.9	0.2	2.2	2
CCn1c(=O)c(C(=O)Nc2ccccc2S(N)(=O)=O)c(O)c2ccccc21	·	4	-3	-6%	-1.4	-0.2	2.4	-3
Cc1nnc(SCc2nnc(-c3ccc(Cl)cc3)o2)n1-c1ccccc1	·	3	6	-10%	-3.5	-0.1	-2.4	-10
O=C(CSc1nnc(NC(=O)c2ccccc2)s1)NC1CCCC1	1.7	-5	-4	·	0.5	0.4	-1.1	·
O=C(COC(=O)Cc1c[nH]c2ccccc12)Nc1cc(S(=O)(=O)N2CCOCC2)ccc1Cl	2.3	·	·	·	-7.5	-0.2	·	-3
CC(=O)O[C@H]1C[C@@H]2CC[C@@H]3[C@H](CC[C@@]4(C)[C@H]3C[C@H]([N+]3(C)CCCCC3)[C@@H]4OC(C)=O)[C@@]2(C)C[C@@H]1N1CCCCC1	·	·	17	·	-6.2	0.1	-1.3	2
